# 2A StopGo = FMDV 2A StopGo reporter, luciferase signal. Potency, µM (titrated, usually from 57.9 µM), inactives show at the highest dose signal change, negative = less light. actives 1.2% (n = 410,000). human cells with a luciferase reporter of 2A StopGo recoding; control for the full effect not named in the record; active = well fitted falling curve with a large enough effect; inconclusive = small, poorly fitted or top-dose-only effect; inactive = no such curve, though single readings can be large or run the other way; tested in HEK293T cells; further: on the % scale 0 is the no-effect control and ±100 the full control effect; nearly all actives have a fitted effect of over 45% in size; luciferase light after 4 h
# Cruzain Triton = blocks cruzain activity in presence of Triton detergent | purified cruzain, Z-FR-AMC fluorescence, 0.01% Triton | Potency, µM, for the others: max response, negative = inhibition, most hits filed as inhibitors | actives 0.43% (n = 200,000);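 further: plate controls were neutral wells for no effect and buffer without enzyme for full effect; nearly all actives have a fitted effect of over 40% in size; top concentration of the series not given in the record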
# Target sequence (P25779 123-467 limits assumed): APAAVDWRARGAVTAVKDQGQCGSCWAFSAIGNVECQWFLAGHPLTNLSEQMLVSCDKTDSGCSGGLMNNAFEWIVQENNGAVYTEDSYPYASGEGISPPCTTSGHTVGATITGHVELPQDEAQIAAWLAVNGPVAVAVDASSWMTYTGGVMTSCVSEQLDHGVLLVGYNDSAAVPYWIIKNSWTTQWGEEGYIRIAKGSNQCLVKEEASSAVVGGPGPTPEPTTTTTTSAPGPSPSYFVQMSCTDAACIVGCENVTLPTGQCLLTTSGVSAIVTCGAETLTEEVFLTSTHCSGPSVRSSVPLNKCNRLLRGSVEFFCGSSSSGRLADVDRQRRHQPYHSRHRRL
#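 15 min RT preincubation of 1.5 nM cruzain with compound, then 2 uM Z-FR-AMC added; kinetic AMC fluorescence, 60 s delta. Triton X-100 0.01%, pH 5.5.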
# SARS PLP yeast = SARS-CoV PLP inhibition in yeast; actives 0.19% (n = 330,000); Potency, µM (series often up to 32.9 µM), inactives show at the highest dose activity, positive = growth rescue; S. cerevisiae expressing SARS-CoV PLpro, growth rescue; control for the full effect not named in the record; AID 485353; active means well fitted rising curve with a large enough effect; inconclusive means small, poorly fitted or top-dose-only effect; inactive means no such curve, though single readings can be large or run the other way; further: 0% is about no effect; nearly all actives have a fitted effect of over 55% in size; growth read by luminescence after 48 h
# Cruzain inh noDet = inhibitors of Trypanosoma cruzi cruzain without detergent; P25779; purified cruzain, Z-FR-AMC fluorescence, no detergent; Potency, µM, without a hit: max response, negative = inhibition, usual class: inhibitors; actives 2.3% (n = 200,000); AID 1476;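 further: plate controls were enzyme without inhibitor for no effect and buffer without enzyme for full effect; nearly all actives have a fitted effect of over 40% in size; top concentration of the series not given in the record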
#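 Purified cruzain at 1.5 nM, pre-incubated 15 min with compound at room temperature in 100 mM sodium acetate pH 5.5, 5 mM DTT, 0.00005% Triton X-100. Reaction started with 2 uM Z-FR-AMC; AMC fluorescence increase over 60 s gives rate.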
# RE007 growth inh = less growth of the S. pombe RE007 Vpr strain; S. pombe RE007 Vpr strain, BacTiter-Glo ATP luminescence, 24 h; control for the full effect not named in the record; Potency, µM (doses to about 92.2 µM), for inactives: top-dose activity change, negative = less growth; actives 0.21% (n = 360,000); active = well fitted falling curve with a large enough effect; inconclusive = small, poorly fitted or top-dose-only effect; inactive = no such curve, though single readings can be large or run the other way;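 further: on the % scale 0 is the no-effect control and ±100 the full control effect; nearly all actives have a fitted effect of over 50% in size; the assay follows cell death caused by Vpr and the record does not say whether a fall means rescue or toxicity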
#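 Fission yeast RE007 carrying one integrated HIV-1 vpr copy, seeded at OD 0.01 in PMG+AL medium with 23 nL pinned compound. Grown 24 h at 30 degrees; viability read by BacTiter-Glo luminescence after 5 min.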
# NS1 function inh = inhibitors of influenza NS1 protein function; S. cerevisiae slowed by influenza A NS1, growth recovery by OD600; Potency, µM (top dose mostly 46.1 µM), for the others: at the top dose activity, positive = more growth; actives 0.4% (n = 270,000); AID 2326; active means well fitted rising curve with a large enough effect; inconclusive means small, poorly fitted or top-dose-only effect; inactive means no such curve, though single readings can be large or run the other way; further: nearly all actives have a fitted effect of over 50% in size
#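 S. cerevisiae expressing influenza A NS1, grown in glucose, washed, then diluted 1:100 into pH 6.0 -URA galactose medium with 23 nl compound. Growth recovery read as OD600; NS1-free strain serves as control.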
# MARV entry inh = Marburg virus entry inhibition | actives 1.8% (n = 300,000) | Marburg virus pseudotyped entry inhibition, cell reporter; control for the full effect not named in the record; about a third of the inactives were read at about 46 µM | AID 540276 | Potency, µM (series often up to 37.8 µM), for inactives: at the highest dose activity change, negative = inhibition, usual class: inhibitors; active = well fitted inhibition curve with a large enough effect; inconclusive = small, poorly fitted or top-dose-only effect, or effect the other way; inactive = flat fitted curve, though single readings scatter; tested in HEK293 cells; about a fifth of its hits are not listed in these tables; further: on the % scale 0 is the no-effect control and ±100 the full control effect; luciferase read-out
# LASV entry inh = blocks Lassa virus binding to or entry into cells. Potency, µM (series often up to 37.9 µM), inactives show at the highest dose activity change, negative = inhibition, usual class: inhibitors. Lassa virus pseudotype entry inhibition, cell reporter; control for the full effect not named in the record. actives 1.2% (n = 300,000). AID 540256; active means well fitted inhibition curve with a large enough effect; inconclusive means small, poorly fitted or top-dose-only effect, or effect the other way; inactive means flat fitted curve, though single readings scatter; tested in HEK293 cells; further: on the % scale 0 is the no-effect control and ±100 the full control effect; nearly all actives have a fitted effect of over 50% in size; luciferase read-out
# Starred values were filed as active, the others as inactive; ? = inconclusive; · = not tested or not shown; & = joins results of further samples; [ ] = another dose, or the depositor's remark. Unless noted, the call rests on the fitted dose curve; in most records, active means well fitted curve in the direction sought with a large enough effect; inconclusive means small, poorly fitted or top-dose-only effect, or another doubt; inactive means no such curve, though single readings can be large; an effect the other way counts as inactive or inconclusive. Potency means the concentration at half of the fitted maximal effect.
SMILES,2A StopGo,Cruzain Triton,SARS PLP yeast,Cruzain inh noDet,RE007 growth inh,NS1 function inh,MARV entry inh,LASV entry inh
COc1cc(Br)cc2cc(C(=O)N3CCN(C(=O)c4ccco4)CC3)c(=O)oc12,-12%,0.4%,-8%,-16%,9%,13%,12%,-1%
Cc1cc2c(=O)n(Cc3ccco3)c(SCC(=O)c3ccc(Cl)s3)nc2s1,?,-8.2%,3%,25µM*,2%,1%,?,?
COc1cc(C(=O)N2CCN(C(=O)C3CCCO3)CC2)cc(OC)c1OC (configuration not stated),0%,·,-1%,·,2%,·,-1%,2%
Cc1cc(C)c(C#N)c(Nc2ccc3c(c2)OCCO3)n1,1%,7.0%,-4%,-7%,23%,-1%,·,·
COc1ccc(-n2c(Cn3c(=O)sc4ccccc43)nnc2SCC(=O)N2CCCC2)cc1,-11%,-14%,-1%,8%,-5%,1%,-2%,·
O=C(C1CC1)N1CCc2cc(Br)cc(S(=O)(=O)N3CCCCCC3)c21,-8%,-2.0%,-33%,1%,8%,-84%,-30%,-1%
COc1ccc(-n2c(SCc3ccc([N+](=O)[O-])cc3)nnc2-c2ccc(C)cc2)cc1,-7%,-5.4%,?,-23%,5%,13%,?,3%
Fc1ccccc1COc1ccc(/C=N/NC(=S)NCc2ccccc2)cc1,-10%,-0.9%,10%,6.3µM*,-12%,-18%,-4%,?
Cn1c(-n2cccc2)c(-c2c(-c3ccccc3)[nH]c3c2c(=O)[nH]c(=O)n3C)c(=O)[nH]c1=O,4%,0.9%,-4%,21%,·,·,9%[46.1 µM],5%[46.1 µM]
COc1ccccc1N1CCN(C(=O)c2oc3ccccc3c2NC(=O)C(C)Oc2ccccc2)CC1 (configuration not stated),-2%,-2.2%,·,5%,·,·,·,-4%[46.1 µM]
Cn1c(=O)c2c3c(sc2n2c(SCc4ccc5c(c4)OCO5)nnc12)COC(C)(C)C3,·,3.3%,2%,-5%,·,7%,·,·
CC1CCc2nn(CC(=O)NCc3ccc4c(c3)OCO4)cc2C1 (configuration not stated),-19%,-3.1%,-4%,-8%,9%,0%,·,·
COc1cc2c(C)nc3onc(-c4ccccc4)c3c2cc1OC,-24%,4.3%,3%,?,-1%,-20%,-32%,2%
CC1CCc2cc(F)ccc2N1C(=O)CSc1nnc2c3ccccc3n(C)c2n1 (configuration not stated),7%,0.0%,2%,?,15%,13%,-9%,0%
Cc1ccc(NC(=O)CCNS(=O)(=O)c2ccccc2)cc1S(=O)(=O)N1CCOCC1,38%[activator],·,-2%,·,-9%,·,-1%,-8%[46.1 µM]
COc1ccc(N/C=C(\C=C\C#N)S(=O)(=O)c2ccccc2)cc1,?,·,-1%,·,1%,3%,·,·
Cc1ccc(CCNC(=O)C2CCN(S(=O)(=O)c3ccc4c(c3)oc(=O)n4C)CC2)cc1,-19%,·,-4%,·,-5%,-2%,·,·
O=C(/C=C/c1ccco1)NCc1ccc2c(c1)OCO2,0%,·,4%,·,-14%,2%,-7%[46.1 µM],6%[46.1 µM]
CCOC(=O)c1c(-c2ccccc2)csc1NC(=O)c1cc(-c2ccccc2OC)on1,-7%,·,·,·,-2%,·,-9%[46.1 µM],7%
COc1ccc(-c2nc(SC(CC(=O)NCc3ccccc3)c3ccc(OC)c(OC)c3)n[nH]2)cc1 (configuration not stated),-9%,-5.7%,-10%,24%,-2%,-19%,9%,-18%
COc1ccc(-n2c(C)cc(C(=O)CSc3nnc(-c4ccoc4C)n3C)c2C)cc1,?,-5.1%,-5%,-16%,15%,-39%,-15%&-15%,-8%
O=C(O)Cc1c[nH]c2cccc(O)c12,-11%,·,-1%,·,10%,8%,·,·
CCOc1cc(N2CCOCC2)c(OCC)cc1NC(=O)CSc1n[nH]c(N)n1,-2%,·,1%,·,-6%,·,-24%[46.1 µM],-1%
N#Cc1c(SCC(N)=O)nc(-c2ccccc2)c2c1CCCC2,-28%,-1.0%,1%,-5%,1%,-3%,?,-26%
COC(=O)c1sc2ncn(CC(=O)N(C)C3CCCCC3)c(=O)c2c1C,3%,·,3%,·,-3%,8%,33%[46.1 µM],8%
CCOC(=O)c1ccccc1NC(=O)c1ccc2c(Cl)c3c(nc2c1)CCC3,38%[activator],0.3%,·,-7%,·,·,-18%[46.1 µM],14%[46.1 µM]
CCOc1ccc(N(CC(=O)OC)S(=O)(=O)c2ccc(OC)c(OC)c2)cc1,0%,-2.3%,-2%,20%,4%,-17%,-5%,-11%
Cc1ccnc(NS(=O)(=O)c2ccc(NC(=O)c3ccc(C)c(C)c3)cc2)n1,18%,-2.9%,·,12%,·,·,·,-3%[46.1 µM]
COc1ccc(C(=O)O/N=C/c2ccc(S(=O)(=O)c3ccc(Cl)cc3)nc2)cc1,-2%,·,·,·,-5%,·,10%[46.1 µM],13%
COc1cc(OC)cc(C(=O)Nc2nnc(Cc3ccc(OC)c(OC)c3)s2)c1,-5%,·,3%,·,10%,·,?,19%
COc1ccccc1NC(=O)c1ccc(S(=O)(=O)N2CCCC(C)C2)cc1 (configuration not stated),-24%,·,-14%,·,7%,-3%,3%[46.1 µM],-10%
O=C(CNC(=O)c1cccc(Br)c1)N/N=C/c1ccc[nH]1,17%,·,-2%,·,13%,·,6.3µM*,?
COC(=O)[C@@]1(Cc2ccc(F)cc2)[C@H]2c3cc(C(=O)N4CCCC4)n(Cc4ccc(C(F)(F)F)nc4)c3C[C@H]2CN1C(=O)c1ccccc1,-27%,-4.4%&-0.6%,6%,?,0%,11µM*,?,?
O=C(NCCn1ccc2ccccc21)c1ccc(S(=O)(=O)N2CCOCC2)cc1,-23%,0.1%,-2%,-3%,2%,-83%,·,·
COc1cccc(NC(=O)c2ccc3nc(C)sc3c2)c1,49%[activator],·,-16%,·,-5%,-40%,·,·
O=C(c1cc(-c2ccccc2)nc2ccccc12)N1CCN(c2ccccn2)CC1,-15%,-1.0%,-9%,6%,-1%,-55%,?,11%
O=C1NC(=Nc2ccc(O)cc2)S/C1=C/c1ccco1,5%,·,2%,·,-9%,·,?,4.6µM*
O=C(Nc1ccc2c(c1)OCO2)c1cccc(F)c1,55%[activator],1.1%,·,-2%,2%,-63%,-5%,?
Cc1ccc(NC(=S)NCC(O)c2ccccc2)c(C)c1 (configuration not stated),32%[activator],·,2%,·,-11%,4%,0%,0%
C[C@H](NC(=O)c1ccco1)C(=O)Nc1cccc([N+](=O)[O-])c1,1%,·,2%,·,3%,·,12%[46.1 µM],-26%
O=C(COC(=O)c1cc(Br)ccc1O)NC1CCCCCC1,-23%,·,4%,·,16%,·,1%,18%
Cc1cccc(N2CCN(Cc3ccoc3)CC2)c1C,·,0.8%,-4%,-9%,2%,-4%,-25%,-24%
COc1ccc(S(=O)(=O)N2CCN(CC(=O)NC3CC3)CC2)cc1,-21%,·,-4%,·,3%,-3%,19%,1%
Cc1cc(C)nc(NNC2=CC(=[N+]3CCCC3)CCC2)n1,-4%,·,-1%,·,-26%,·,2%,-13%
OCCC1CN(CC(c2ccccc2)c2ccccc2)CCN1C1CCCC1 (configuration not stated),-17%,·,0%,·,-9%,1%,13µM*,?
NC(=O)c1ccccc1NC(=O)Nc1ccc(F)c(Cl)c1,51%[activator],·,-1%,·,-1%,-1%,?,5%
Cc1ccc(CSc2nnc(C)c(=O)n2N)cc1,7%,-0.6%,3%,4%,18%,-3%,?,0%
CC(=O)c1ccc(N2CCN(C(=O)c3cc(-c4ccc5c(c4)OCO5)nc4ccccc34)CC2)cc1,0%,-14%,-2%,?,-6%,13µM*,?,-10%
CN(Cc1c(F)cccc1Cl)C(=O)c1ccc2ccccc2n1,85%[activator],·,-10%,·,10%,6%,-19%[46.1 µM],-12%[46.1 µM]
CCCCOC(=O)Cc1c(O)c2ccccc2[nH]c1=O,-6%,3.4%,-3%,10%,-19%,-30%,0%,1%

# More results.
SMILES,2A StopGo,Cruzain Triton,SARS PLP yeast,Cruzain inh noDet,RE007 growth inh,NS1 function inh,MARV entry inh,LASV entry inh
O=C(CSc1nc2c(c(=O)n1-c1ccccc1)SCC2)N1CCOCC1,-12%,-3.2%,5%,4%,-12%,-17%,29%,-1%
O=C(COC(=O)c1ccc(O)cc1O)NC(=O)c1ccccc1,3%,·,·,·,-18%,·,9%[46.1 µM],-1%
Nc1cc[n+](CC(=O)c2ccc3c(c2)OCCO3)cc1,?,-4.3%,13%,-3%,1%,14%,-11%,?
COc1ccc(NC(=O)c2cc3c(=O)n4ccccc4nc3n2C)c(OC)c1,2%,·,0%,·,-2%,·,18%[46.1 µM],10%[46.1 µM]
N#CCCN(Cc1cccnc1)S(=O)(=O)c1ccc2ccccc2c1,0%,·,1%,·,0%,·,0%,2%
Cc1cccc(NCc2nc(SCC(=O)Nc3ccccc3)n[nH]2)c1,6%,·,3%,·,-9%,27%,27%,29%
COc1ccc(N2C(=O)CC(C3CCCO3)C2=O)cc1 (configuration not stated),-24%,·,11%,·,14%,1%,18%[46.1 µM],11%
CCOC(=O)N1C=CC(C)=C[C@@H]2[C@@H](N3C(=O)c4ccccc4C3=O)C(=O)N21,-19%,-0.8%,5%,-3%,4%,-8%,-5%,19%
Cc1cccc(-n2ccnc2SCC(=O)Nc2cccc(S(=O)(=O)NC3=NCCC3)c2)c1C,-7%,·,-2%,·,-19%,·,-9%,-9%
O=C1NC(=S)N/C1=C\c1cccnc1,-1%,·,1%,·,5%,-3%,·,·
Cc1cccc(NC(=O)C2CCN(c3nc(C)cc(C)n3)CC2)c1,1%,1.9%,-2%,?,7%,-2%,-4%,3%
Cc1c(Cl)cccc1NC(=O)CN1CCN(CCN=CC2=C(O)CC(c3ccccc3)CC2=O)CC1 (configuration not stated),-24%,·,-5%,·,-7%,·,1%[46.1 µM],2%
O=C(NNc1c(Cl)cccc1Cl)c1ccno1,-7%,·,1%,·,-14%,2%,·,·
Cc1nnc(SCC(=O)NC2CCCCC2)n1N,-22%,·,-4%,·,-6%,·,27%,26%
Cc1ccc(C(=O)Nc2ccc3nc(N4CCCCC4)cc(C)c3c2)cc1F,-26%,-18%,·,-10%,·,·,·,13%[46.1 µM]
COc1ccc(S(=O)(=O)N2CCCCC2)cc1C(=O)N1CCCC1,5%,·,-6%,·,-2%,17%,13%,0%
CC(N)c1ccc(Cl)cc1Cl (configuration not stated),-18%,-1.4%,4%,-6%,25%,10%,·,·

# Screening results as filed in PubChem BioAssay.
